High-throughput results (PubChem BioAssay)
hNpr1 antagonist = Natriuretic polypeptide receptor (hNpr1) antagonism - Primary qHTS; Atrial natriuretic peptide receptor 1 (Homo sapiens), P16066; HEK293 hNpr1 GloSensor cGMP, ANP-stimulated luminescence; Potency, µM (titrated, usually from 46.3 µM), for the others: at the highest dose activity change, negative = inhibition, usual class: inhibitors; actives 1.6% (n = 76,000); active = well fitted inhibition curve with a large enough effect; inconclusive = small, poorly fitted or top-dose-only effect; inactive = no such curve, though single readings can be large or run the other way;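 note: nearly all actives have a fitted effect of over 60% in size; nearly all hits also lower the signal before the agonist is added; a reference antagonist and vehicle were the controls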
Target sequence (P16066 whole entry, looked up): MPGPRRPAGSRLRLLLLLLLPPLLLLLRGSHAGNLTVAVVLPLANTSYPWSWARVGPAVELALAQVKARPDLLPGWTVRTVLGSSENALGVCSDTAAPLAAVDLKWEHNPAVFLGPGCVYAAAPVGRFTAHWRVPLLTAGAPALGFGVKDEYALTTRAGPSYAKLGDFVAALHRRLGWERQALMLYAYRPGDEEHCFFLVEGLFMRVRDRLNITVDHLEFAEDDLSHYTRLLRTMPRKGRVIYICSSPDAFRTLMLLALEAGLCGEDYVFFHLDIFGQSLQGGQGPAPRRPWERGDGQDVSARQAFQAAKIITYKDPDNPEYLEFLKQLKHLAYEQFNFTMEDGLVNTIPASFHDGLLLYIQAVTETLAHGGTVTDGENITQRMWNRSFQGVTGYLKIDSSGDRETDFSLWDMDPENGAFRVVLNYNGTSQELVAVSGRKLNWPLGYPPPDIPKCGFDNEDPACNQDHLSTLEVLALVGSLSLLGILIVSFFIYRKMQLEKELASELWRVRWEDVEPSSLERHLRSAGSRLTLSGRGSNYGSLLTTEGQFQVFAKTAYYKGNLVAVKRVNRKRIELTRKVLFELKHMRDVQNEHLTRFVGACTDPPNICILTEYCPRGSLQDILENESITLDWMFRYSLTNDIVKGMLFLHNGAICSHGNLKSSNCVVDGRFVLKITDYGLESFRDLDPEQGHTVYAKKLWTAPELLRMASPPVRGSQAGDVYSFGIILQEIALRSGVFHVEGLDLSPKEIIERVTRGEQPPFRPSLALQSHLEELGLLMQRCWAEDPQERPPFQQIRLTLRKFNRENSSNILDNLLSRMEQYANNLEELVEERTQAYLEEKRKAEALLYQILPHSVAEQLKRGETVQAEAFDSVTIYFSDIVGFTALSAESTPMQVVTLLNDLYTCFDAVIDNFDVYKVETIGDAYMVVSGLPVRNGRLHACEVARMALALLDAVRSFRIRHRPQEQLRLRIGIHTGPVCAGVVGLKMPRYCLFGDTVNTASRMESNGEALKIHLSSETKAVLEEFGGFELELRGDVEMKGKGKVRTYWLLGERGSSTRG
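Compound pre-incubated 30 min at room temperature on GloSensor-loaded HEK293 cells stably carrying hNpr1 and the pGS-40F cGMP biosensor. Stimulation uses hNppA at 0.1 nM final; luminescence is taken at baseline and 20 min post-agonist.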
Starred values were filed as active, the others as inactive; ? = inconclusive; [ ] = another dose, or the depositor's remark. % is set by controls: 0 for no effect and ±100 for the full control effect; potency is the fitted concentration of half-maximal effect. Not all compounds are listed (hit frequency here may not be typical).

SMILES | hNpr1 antagonist
COCC(=O)N1CCN(C(=O)c2cccnc2)C[C@H]1C(=O)N[C@@H](CC1CCCCC1)C(N)=O | 5.8%
O=C(C1CCCC1)N1C[C@@H](COc2ccncc2)[C@H](c2ccccn2)C1 | -0.4%
Cc1cc(C(=O)Nc2ccc([C@H]3OCC(=O)N(C)[C@@H]3CO)cc2)no1 | -1.8%[70.6 µM]
COc1ccc(NC(=O)N2CCCC(Cc3noc(-c4ccncc4)n3)C2)cc1 (stereo not drawn) | 0.0%
CCc1nc2c(=O)n(CC(=O)NCc3ccco3)nc(C)c2s1 | -1.0%
O=C(N[C@H]1CCN2C(=O)[C@@H](Cc3c[nH]c4ccccc34)NC(=O)[C@H]12)c1ccccc1 | 0.5%[70.6 µM]
Cc1ccsc1C(=O)N1CCC(c2nc(C3CCOCC3)no2)CC1 | 4.0%
CCOC(=O)CNC(=O)c1ccc(CN2C(=O)NC3(CCS(=O)(=O)CC3)C2=O)cc1 | -6.3%
Cc1nn(-c2ccc(C(C)C)cc2)c(C)c1[C@@H]1C=C[C@@H](NCc2ccc(F)cc2)C1 | ?
Cc1sc2ccn(Cc3ccc(F)cc3)c(=O)c2c1C(=O)NCc1ccccn1 | -13.4%
Cc1cccc(CN2CCNc3cnc(OCc4cccnc4)cc3C2)c1 | ?
CN(C)S(=O)(=O)N1CCCN(Cc2ccncc2)C(c2ccccc2)CC(=O)NCC1 (stereo not drawn) | 0.1%
COc1ccc(C(=O)N[C@@H]2CCC[C@@H]2C(=O)N2CCN(c3ncccn3)CC2)cn1 | 1.1%
COCCNC(=O)CC[C@]12CC[C@](C)(O)C[C@H]1C(C)(C)C[C@@H]2NC(=O)CC(C)(C)C | 0.7%[70.6 µM]
O=C(c1cc(Cl)ccc1F)N1CCC(Cc2nc(-c3ccc(F)cc3)no2)CC1 | 3.16µM*
CS(=O)(=O)N1C[C@H]2CCN(Cc3c(F)cccc3Cl)C[C@H]21 | 3.5%
CCc1cnc(N)nc1NCc1nc(C(=O)NC)no1 | 2.4%
O=C1CCC(C(=O)NCc2ccc(-c3cnc4c(Oc5ccccc5)nccn34)cc2)N1 (stereo not drawn) | -4.3%[70.6 µM]
C=CCCC(CN1CCOCC1)Oc1ccc(-c2nc(C)no2)cn1 (stereo not drawn) | 2.3%
COc1cncc([C@@H](NC(=O)c2cccc(-n3cccn3)c2)C2CC(O)C2)c1 (stereo partly drawn) | -0.2%
CCn1nccc1C(=O)N1CCC2(CC1)c1[nH]c3ccc(OC)cc3c1CCN2C | 8.1%
COc1ccc2c(c1)CCN=C2C[C@H]1CN(C(=O)c2cccc(F)c2)CC[C@H]1CC(=O)O | 2.8%
Cc1ccccc1S(=O)(=O)N1CCC(CCC(=O)O)CC1 | -0.9%
CCc1nc2c(c(-c3ccc(Cl)cc3)n1)CCN(Cc1ccsc1)CC2 | 7.1%
CC1=C[C@@H](CN2CCC(C(N)=O)CC2)[C@H](C(C)C)C[C@H]1Cc1nnc(-c2ccncc2)o1 | 1.1%[70.6 µM]
O=C1N(Cc2cccc(F)c2F)CCCC1(O)CN1CCOCC1 (stereo not drawn) | 3.7%
CCNC(=O)N1CCCCCNC(=O)[C@@H]2CCC[C@@H]21 | -7.2%
Cc1[nH]c(=O)c(C#N)cc1C(=O)N1CCCC2(CCC(=O)N(C3CC3)C2)C1 (stereo not drawn) | 5.8%
COC(=O)C1=C(C)N=C2SC=C(CC(=O)NCc3cccc(F)c3)N2C1c1ccccc1 (stereo not drawn) | -15.5%
C[S+](=O)([O-])N1CCC(Cn2ccc3c(N4CCOCC4)nc(-c4cncnc4)cc32)CC1 | -9.2%
COCCN1C(=O)c2cccn2CC1CNS(=O)(=O)c1ccc(F)cc1 (stereo not drawn) | 0.2%
COc1ccc(NC(=O)CN2C(=O)NC3(CCCCC3)C2=O)cc1 | 5.5%
COc1ccc(CNC(=O)c2cc3c(N4CCSCC4)nc(C)cn3n2)c(OC)c1 | ?
COCCN1Cc2ccc(NCc3ccccc3)nc2C(C)(C(=O)N(C)CCOC)C1 (stereo not drawn) | 1.6%[70.6 µM]
Cc1nc(C2CCCN(C(=O)CCC(C)C)C2)cc(N2CCCC2)n1 (stereo not drawn) | 0.5%
COc1ccc(-c2nccn3cc(C(=O)NCCN4CCCCC4)nc23)cc1 | 3.0%
Cc1sc2ncnc(N3CCCN(C(=O)c4ccoc4)CC3)c2c1C | -26.4%
CC(C)NC(=O)NC[C@H]1O[C@@H]2C[C@@H](CC(=O)N3CCOCC3)O[C@@H]2[C@@H]1O | -0.4%[70.6 µM]
O=C1Nc2ccc(-c3cccc(C(F)(F)F)c3)cc2C(=O)N2CCN(C(=O)C3CCNCC3)C[C@H]12 | 3.5%
CCOc1ccccc1C1NC(=O)N(CC(=O)Nc2cccc(OC)c2)C2=C1C(=O)OC2 (stereo not drawn) | -11.7%
Cc1oc(C(O)c2ccccc2F)nc1C(=O)Nc1ccc2c(c1)NC(=O)CO2 (stereo not drawn) | 5.2%[70.6 µM]
CCCNC(=O)N1CCCC(c2nc(CCOc3cccc(C)c3)no2)C1 (stereo not drawn) | -8.5%
CC1(COc2cccnc2)COc2ccc(C(=O)N3CCOCC3)cc2N1 (stereo not drawn) | ?
NC(=O)c1ccc(CC2CCN(C(=O)C3CCC3)CC2)cc1 | -1.8%
O=C(c1cc(C2CC2)[nH]n1)N1CCC2(CC1)NC(=O)N(c1cccc(F)c1)N2 | 6.2%
COc1ccc(C(=O)N2CCC[C@H]2c2nc(-c3ccc(F)cc3)no2)c(OC)c1 | -1.4%
Cc1cc(=O)n(CC(=O)Nc2ccc(N(C)C)cc2)c(-c2ccc(Cl)cc2)n1 | 0.7%
C[C@]1(O)CCN(C(=O)CC(c2ccccc2)c2ccccc2)C[C@@H]1O | -7.0%
CCn1c(-c2ccccc2)nn(CC(=O)NCCc2ccc(C)o2)c1=O | -1.4%
CSCC(=O)N[C@@H]1CN(Cc2cccnc2)C[C@H]1CN(C)C | 1.1%
CN(C)C1CCCN(C(=O)c2csc3c2CCCC3)CC1 (stereo not drawn) | 3.8%
O=C1CCN(S(=O)(=O)c2ccccc2)CCCC(C(=O)NCc2ccc(F)cc2)CCN1 (stereo not drawn) | 0.7%
CC1(C)N=C(c2ccccc2)C(=O)N1CC(=O)N1CCN(c2ccccc2F)CC1 | 0.0%
CCC(O)c1cc2n(n1)CCN(c1nc(-c3ccccc3)nc3c1CCC3)C2 (stereo not drawn) | 4.6%
COc1ccc(C(=O)NC(C(=O)N2CCCCC2)C2CCN(C(=O)C3CC3)CC2)cc1 (stereo not drawn) | -0.1%
COCCNC(=O)c1nc(-c2ccc([S+](C)(=O)[O-])cc2)c2ccccn12 | 0.8%
COc1ccc(C(=O)N2CCCC(c3nc(-c4cccnc4)no3)CCNC(=O)CC2)cn1 (stereo not drawn) | 7.2%
CCc1ocnc1C(=O)N1C[C@H]2OC(=O)N(CCCN3CCOCC3)[C@H]2C1 | 2.5%
CCCc1ncncc1C(=O)N(CCO)Cc1nccn1C | 8.8%
CC(C)C(=O)NC1CCN(c2cnn(C)c(=O)c2)CC1 | -0.8%

More compounds.
SMILES | hNpr1 antagonist
COc1nc2nc(CCc3ccccc3)n(C)c2cc1-c1ccncc1 | -3.1%[70.6 µM]
CCOCCCNC(=O)c1c(OCC)cc(=O)n2c1CCCCC2 | 2.3%
CC1=NS(=O)(=O)N(C)C=C1C(=O)OCc1nc(-c2cccc(Cl)c2)no1 | 14.1µM*
CNc1nc(C(=O)N2CCC3(CCCN(CCOC)C3=O)C2)cs1 (stereo not drawn) | 7.4%
C[C@]1(O)CCN(C(=O)c2cc(-c3ccsc3)n[nH]2)C[C@@H]1O | 16.3%
Cc1ccc(S(=O)(=O)Cc2noc([C@@H]3C[C@@H](O)CN3Cc3cccnc3)n2)cc1 | 3.3%[70.6 µM]
Cn1cc(CCC(=O)N[C@@H]2CCOC[C@H]2Oc2ccc(C(=O)O)cc2)cn1 | -0.2%
Cc1cccc(Cl)c1CNC(=O)c1c(C)noc1-c1ccccc1Cl | 4.6%
COC1CN(C2CCN(C(=O)c3cnccn3)CC2)C12CCOCC2 (stereo not drawn) | -9.3%
CCNc1ncc(C(=O)N[C@H](C2CCNCC2)C2CC(O)C2)cn1 (stereo partly drawn) | -1.0%
CCCC(C)N1CC2(CCN(C(=O)c3ccc(C(C)=O)s3)CC2)OC1=O (stereo not drawn) | -1.7%
CN1CCCC2(CCN(c3ccc(C#N)cn3)C2)C1=O (stereo not drawn) | -5.1%
O=C1NCCCCCCN(CC2CCCCC2)[C@H]2CCC[C@@H]12 | 0.2%
COc1ccc2cc(C(=O)N3CC(N(Cc4cccnc4)S(C)(=O)=O)C3)[nH]c2c1 | -16.4%
O=C1[C@@H]2C[C@@H](O)CN2C2(CN(Cc3cccc(F)c3)C2)C(=O)N1Cc1ccccc1F | 5.2%[70.6 µM]
CC(C(=O)N1CCn2nc(Cc3ccccc3)cc2C1)c1ccc(O)cc1 (stereo not drawn) | -3.5%
CC(=O)N1CCC(C(=O)NCC2CCN(c3cc(-c4ccc(C)cc4)[nH]n3)CC2)CC1 | -11.1%
Cn1nc(C(=O)NCC23CCCC=C2NC(=O)CC3)c2ccccc21 (stereo not drawn) | 0.9%
Cc1ccc(CN2C(=O)[C@@H]3C[C@@H](O)CN3C3(CN(CC(C)C)C3)C2=O)o1 | 0.2%[70.6 µM]
O=C(c1nnc(CNC2CC2)n1-c1ccccc1)N1CCC[C@@H]1C(c1ccccc1)c1ccccc1 | -9.6%

25 of the compounds above, as a markdown table:
| molecule | hNpr1 antagonist |
| --- | --- |
| COCCNC(=O)c1nc(-c2ccc([S+](C)(=O)[O-])cc2)c2ccccn12 | 0.8% |
| COc1ccc(C(=O)N2CCCC(c3nc(-c4cccnc4)no3)CCNC(=O)CC2)cn1 (stereo not drawn) | 7.2% |
| CCc1ocnc1C(=O)N1C[C@H]2OC(=O)N(CCCN3CCOCC3)[C@H]2C1 | 2.5% |
| CCCc1ncncc1C(=O)N(CCO)Cc1nccn1C | 8.8% |
| CC(C)C(=O)NC1CCN(c2cnn(C)c(=O)c2)CC1 | -0.8% |
| COc1nc2nc(CCc3ccccc3)n(C)c2cc1-c1ccncc1 | -3.1%[70.6 µM] |
| CCOCCCNC(=O)c1c(OCC)cc(=O)n2c1CCCCC2 | 2.3% |
| CC1=NS(=O)(=O)N(C)C=C1C(=O)OCc1nc(-c2cccc(Cl)c2)no1 | 14.1µM* |
| CNc1nc(C(=O)N2CCC3(CCCN(CCOC)C3=O)C2)cs1 (stereo not drawn) | 7.4% |
| C[C@]1(O)CCN(C(=O)c2cc(-c3ccsc3)n[nH]2)C[C@@H]1O | 16.3% |
| Cc1ccc(S(=O)(=O)Cc2noc([C@@H]3C[C@@H](O)CN3Cc3cccnc3)n2)cc1 | 3.3%[70.6 µM] |
| Cn1cc(CCC(=O)N[C@@H]2CCOC[C@H]2Oc2ccc(C(=O)O)cc2)cn1 | -0.2% |
| Cc1cccc(Cl)c1CNC(=O)c1c(C)noc1-c1ccccc1Cl | 4.6% |
| COC1CN(C2CCN(C(=O)c3cnccn3)CC2)C12CCOCC2 (stereo not drawn) | -9.3% |
| CCNc1ncc(C(=O)N[C@H](C2CCNCC2)C2CC(O)C2)cn1 (stereo partly drawn) | -1.0% |
| CCCC(C)N1CC2(CCN(C(=O)c3ccc(C(C)=O)s3)CC2)OC1=O (stereo not drawn) | -1.7% |
| CN1CCCC2(CCN(c3ccc(C#N)cn3)C2)C1=O (stereo not drawn) | -5.1% |
| O=C1NCCCCCCN(CC2CCCCC2)[C@H]2CCC[C@@H]12 | 0.2% |
| COc1ccc2cc(C(=O)N3CC(N(Cc4cccnc4)S(C)(=O)=O)C3)[nH]c2c1 | -16.4% |
| O=C1[C@@H]2C[C@@H](O)CN2C2(CN(Cc3cccc(F)c3)C2)C(=O)N1Cc1ccccc1F | 5.2%[70.6 µM] |
| CC(C(=O)N1CCn2nc(Cc3ccccc3)cc2C1)c1ccc(O)cc1 (stereo not drawn) | -3.5% |
| CC(=O)N1CCC(C(=O)NCC2CCN(c3cc(-c4ccc(C)cc4)[nH]n3)CC2)CC1 | -11.1% |
| Cn1nc(C(=O)NCC23CCCC=C2NC(=O)CC3)c2ccccc21 (stereo not drawn) | 0.9% |
| Cc1ccc(CN2C(=O)[C@@H]3C[C@@H](O)CN3C3(CN(CC(C)C)C3)C2=O)o1 | 0.2%[70.6 µM] |
| O=C(c1nnc(CNC2CC2)n1-c1ccccc1)N1CCC[C@@H]1C(c1ccccc1)c1ccccc1 | -9.6% |

The listing continues.
SMILES | hNpr1 antagonist
Cn1cnc(C(=O)N2CCC(N(Cc3ccccc3)C3CCOCC3)CC2)c1 | -0.8%
Cn1c([C@H]2CCN(Cc3ccc4c(c3)OCO4)C2)nc2ccccc21 | -10.8%[70.6 µM]
CC(C)CN(C)C(=O)c1cc(-c2cnn(C(C)C)c2)nc2cc(F)ccc12 | 1.6%
O=C(NCC1CC1)C1Cn2cccc2C(=O)N1Cc1cccnc1 (stereo not drawn) | 2.9%
Cc1ccccc1C(=O)N1CCCC(c2nn(-c3ccc(Cl)cc3)c(=O)[nH]2)C1 (stereo not drawn) | -7.2%
Oc1ccc(-c2nc(C3CC3)nc3c2CCN(Cc2cccc4ccccc24)CC3)cc1 | -24.3%
Cc1ccc(N2CCN(C(=O)c3noc(-c4ccc5c(c4)OCO5)n3)CC2)c(C)c1 | -21.2%
